MT1-MMP act inh: blockers of MT1-MMP proenzyme processing, primary screen, HT1080 RFP-PRO-GFP cells, GFP/RFP fluorescence; AID 651647, 2012; 360,000 compounds, 0.061% hits; Matrix metalloproteinase-14 (Homo sapiens), P50281; GFP/RFP ratio change, % at 20 µM; GFP/RFP ratio fluorescence, overnight; percent of plate control window, DMSO zero;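 active = GFP/RFP ratio change of at least 30% with cell ATP level not reduced by more than half and red fluorescence within 50% of control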; note: strong numbers were not always called active
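Assay system: HT1080 RFP-PRO-GFP cells. Benchmarks: DMSO vehicle wells and RFP-L50D-GFP reporter cell wells. Times: overnight cell settling, then overnight compound exposure, 37 °C, 5% CO2. Compound: 20 µM single dose, 1% DMSO. Read-out basis: GFP/RFP fluorescence ratio.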
PABP polyA inh: PABP poly(A) RNA binding inhibitors, primary screen, biochemical, fluorescence polarization, uHTS; 290,000 compounds, 1% hits; Polyadenylate-binding protein 1 (Homo sapiens), P11940; inhibition, % at 35 µM;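 active = 50% or more with normal probe brightness, or confirmed in later tests; inconclusive = above 50% with abnormal brightness, or retests that disagree; inactive = below 50% or failed in later tests; about a fifth of its hits are not listed in these tables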;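 note: calls also rest on retests at 20 µM and on dose response follow-up; controls were probe without protein and protein plus probe with vehicle; some compounds called inactive have numbers as strong as hits; many hits fall short of the cut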
Target sequence (P11940 whole entry, looked up): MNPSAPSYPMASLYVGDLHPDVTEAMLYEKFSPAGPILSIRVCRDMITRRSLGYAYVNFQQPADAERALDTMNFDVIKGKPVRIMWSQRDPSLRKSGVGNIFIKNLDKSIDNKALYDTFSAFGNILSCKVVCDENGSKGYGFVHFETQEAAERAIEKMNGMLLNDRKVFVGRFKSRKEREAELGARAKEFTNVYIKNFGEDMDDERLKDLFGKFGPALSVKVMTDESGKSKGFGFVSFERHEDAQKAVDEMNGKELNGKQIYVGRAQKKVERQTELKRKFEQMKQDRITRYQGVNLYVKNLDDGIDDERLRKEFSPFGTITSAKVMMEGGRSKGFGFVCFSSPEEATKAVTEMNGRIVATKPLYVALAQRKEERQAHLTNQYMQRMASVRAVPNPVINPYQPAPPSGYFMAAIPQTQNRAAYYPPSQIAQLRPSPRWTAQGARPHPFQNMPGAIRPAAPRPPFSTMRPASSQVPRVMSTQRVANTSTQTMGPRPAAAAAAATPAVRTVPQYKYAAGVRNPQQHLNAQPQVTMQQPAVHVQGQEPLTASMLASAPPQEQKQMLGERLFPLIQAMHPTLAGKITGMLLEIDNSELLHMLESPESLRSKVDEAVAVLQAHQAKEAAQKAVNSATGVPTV
Rce1 inh: yeast Rce1p protease inhibitors, primary screen, biochemical, fluorescence, cell-free homogeneous. CAAX prenyl protease 2 (Saccharomyces cerevisiae (strain ATCC 204508 / S288c)), Q03530. yeast membranes, quenched prenylated peptide cleavage fluorescence. calls only. 290,000 compounds, 0.27% hits;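 active = fall in fluorescence gain of 50% or more versus controls, with final raw signal at or below 3038400; inconclusive = same 50% fall but final raw signal above 3038400; inactive = fall in fluorescence gain under 50%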;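 note: plate controls were neutral control wells for no effect and wells lacking membranes for full effect; tested at 10 µM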
Target sequence (Q03530 whole entry, looked up): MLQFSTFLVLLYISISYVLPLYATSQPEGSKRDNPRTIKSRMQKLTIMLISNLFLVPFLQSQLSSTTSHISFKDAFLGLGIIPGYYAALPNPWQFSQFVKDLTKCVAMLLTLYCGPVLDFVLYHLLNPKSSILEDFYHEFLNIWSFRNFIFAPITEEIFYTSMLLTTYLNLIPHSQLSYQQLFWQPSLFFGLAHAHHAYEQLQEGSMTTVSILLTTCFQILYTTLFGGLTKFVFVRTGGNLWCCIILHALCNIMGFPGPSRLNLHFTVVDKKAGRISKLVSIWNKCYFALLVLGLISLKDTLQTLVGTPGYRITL
HIV Env fusion: inhibitors of HIV-1 Env-driven cell-cell fusion, primary screen, HeLa-JRFL effector, CEM21 target cells, luciferase | inhibition, % at 12.3 µM | 360,000 compounds, 1.1% hits;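 active = mean replicate inhibition score of at least 50 and every replicate individually at or above 50; inconclusive = only one of the two criteria met; inactive = mean below 50 and not all replicates reaching 50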;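 note: 0% = plate neutral controls and 100% = maraviroc near 300 nM; one replicate is shown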
Yeast UUG start: modulators of yeast start codon fidelity, primary screen, whole organism, S. cerevisiae, single point, plate reader; S. cerevisiae UUG-firefly luciferase reporter, luminescence/redox ratio; AID 602363, 2012; 350,000 compounds, 0.13% hits; activity score, % at 18.7 µM;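 active = replicate mean at a twofold rise or more, about +100% in these data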;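 note: firefly luciferase made from a UUG start codon reports start codon fidelity; reporter light over untreated wells divided by growth signal over untreated wells; some hits fall short of that in this replicate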
eIF4H FP inh: human eIF4H binding inhibitors, primary screen, translation initiation inhibitor project, biochemical, uHTS, fluorescence polarization; Eukaryotic translation initiation factor 4H (Homo sapiens), Q15056; eIF4H fluorescence polarization binding assay; inhibition, % at 35 µM; 290,000 compounds, 0.94% hits; AID 2012, 2009;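 active = 50% or more with normal probe brightness, or confirmed in later tests; inconclusive = above 50% with abnormal brightness, or retests that disagree; inactive = below 50% or failed in later tests; about a fifth of its hits are not listed in these tables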;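 note: calls also rest on retests at 20 µM and on dose response follow-up; 0% = protein and probe with vehicle and 100% = probe without protein; strong numbers were not always called active; many hits fall short of the cut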
CSC inhib: cancer stem cell viability inhibitors, primary screen, luminescence. AID 2717, 2010. cancer stem cell-like cells viability. inhibition, % at 7.5 µM. 300,000 compounds, 1.1% hits;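 active = mean at 75% or more and at least half the replicates too; inconclusive = mean and replicates disagree; tested in HMLE shEcad cells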;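 note: 0% = median of negative and 100% = median of positive control wells; the first replicate is given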
eIF4H FP inh retest: recorded beside eIF4H FP inh, whose call it bears; inhibition, %; compound at 20 µM; confirmation average;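 mean of two retest wells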
PABP polyA inh retest: second read-out of PABP polyA inh, no call of its own (marks repeat the call); inhibition, %; compound at 20 µM; confirmation repeats;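 mean of two retest wells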
MT1-MMP act inh RFP: further read-out of MT1-MMP act inh, marked with its call; RFP signal change, %; measured here: RFP expression control read;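 0 = vehicle wells; hits needed this value within 50% of zero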
Active calls of the source: *; i = inactive; u = inconclusive; x = no result given; & = joins results of further samples. These rows are one share of the data; the hit share may differ from the screen's.

SMILES | MT1-MMP act inh | MT1-MMP act inh RFP | PABP polyA inh | Rce1 inh | HIV Env fusion | Yeast UUG start | eIF4H FP inh | CSC inhib | others
C[C@]12CCC(=O)C=C1C=C[C@@H]1[C@@H]2CC[C@@]2(C)[C@H]1CC[C@@]2(O)CCC(=O)O | 1 | 5 | x | x | x | -17 | x | -16
CN1/C(=C\C=C2C(=O)NC(=O)NC2=O)C(C)(C)c2ccccc21 | -136 | 1 | -2 | i | 40 | x | u | 35
Cc1cc(C=O)c(C)n1CC1CCCO1 (stereo not given) | 2 | -3 | 6 | i | x | -11 | -2 | x
C1=C(c2c[nH]c3ccccc23)CCNC1 | x | x | 82* | i | x | x | 95* | 7
CN(C)P1(N(C)C)=Nc2c(c(N)nn2C)C(c2ccccc2)=N1 | 1&1 | 1&1 | 0 | i | 16 | -19 | 2 | -14
CCc1ccc(N2C(=O)NC(=O)/C(=C/c3ccsc3)C2=O)cc1 | x | x | 25 | i | x | x | 14 | -10
CC(=O)[C@@]1(O)CCC2C3CC=C4C[C@@H](O)CC[C@]4(C)C3CC[C@@]21C (stereo not given in full) | 3 | 3 | x | x | -67 | -9 | x | -7
Nc1ccc(S(=O)(=O)N2CCCCC2c2cccnc2)cc1 (stereo not given) | 5 | 4 | 2 | i | 1 | -21 | -6 | -10
CN(C)C1=NC(N(C)C)=NP(N(C)C)(N(C)C)=N1 | 4 | 0 | 0 | i | -12 | -10 | 4 | -4
COC(=O)C1=C(c2cccc(OC)c2OC)C[C@@H]2CC[C@H]1N2C(=O)NCc1cccc2ccccc12 | -1 | -3 | x | i | -104 | 11 | x | -23
CC(C)(C)c1nc(N2CCN(C(=O)c3ccco3)CC2)c2nnn(Cc3ccccc3Cl)c2n1 | -22 | -16 | -2 | i | x | -10 | -6 | 119*
CCC(=NCCCN(CC)CC)c1c(O)n(-c2ccccc2)c(=O)[nH]c1=O | -1 | 1 | 3 | i | -22 | -7 | 4 | 0
Cc1c(P(=S)(c2ccccc2)c2ccccc2)[n+]2ccccc2n1C | -6&-1 | -11&-3 | 4 | i | -5&-11 | -16 | -8 | x
Cc1cc(C=C2C(=O)N(C)C(=S)N(C)C2=O)c(C)n1-c1ccncc1 | 6 | 23 | 60 | i | 7 | -19 | 98 | -7 | eIF4H FP inh retest=29;PABP polyA inh retest=34
CCOP(=O)(OCC)C(O)c1ccc2c(c1)OCO2 (stereo not given) | -1 | 2 | -12 | i | -18 | x | 1 | -13
CCOC(=O)c1ccc(N=Cc2c(O)n(-c3ccc(OC)cc3)c(=S)[nH]c2=O)cc1 | 29 | 49 | -4 | i | -1 | x | -3 | 3
CN1CCC(N2CC3CC(C2)c2cccc(=O)n2C3)CC1 (stereo not given) | -2 | 3 | 19 | i | -8 | -9 | 32 | 8
CCn1c(O)c(C=Nc2ccc(S(N)(=O)=O)cc2)c(=O)n(CC)c1=S | 22 | 65 | 27 | i | 25 | x | -4 | 10
O=C(O)c1ccc(Cl)nc1 | 0 | 1 | -6 | i | -5 | x | -12 | -11
CCn1cc(C(=O)N2CCC3(CC2)OCCO3)c(=O)c2cc(S(=O)(=O)N3CCCC3)ccc21 | 0 | 5 | 4 | i | x | -9 | 4 | -16

Fetched one by one from the list above (3):
SMILES | MT1-MMP act inh | MT1-MMP act inh RFP | PABP polyA inh | Rce1 inh | HIV Env fusion | Yeast UUG start | eIF4H FP inh | CSC inhib | others
COC(=O)C1=C(c2cccc(OC)c2OC)C[C@@H]2CC[C@H]1N2C(=O)NCc1cccc2ccccc12 | -1 | -3 | x | i | -104 | 11 | x | -23
Cc1c(P(=S)(c2ccccc2)c2ccccc2)[n+]2ccccc2n1C | -6&-1 | -11&-3 | 4 | i | -5&-11 | -16 | -8 | x
CCn1c(O)c(C=Nc2ccc(S(N)(=O)=O)cc2)c(=O)n(CC)c1=S | 22 | 65 | 27 | i | 25 | x | -4 | 10

Molecules above that have a COOH group (two):
SMILES | MT1-MMP act inh | MT1-MMP act inh RFP | PABP polyA inh | Rce1 inh | HIV Env fusion | Yeast UUG start | eIF4H FP inh | CSC inhib | others
C[C@]12CCC(=O)C=C1C=C[C@@H]1[C@@H]2CC[C@@]2(C)[C@H]1CC[C@@]2(O)CCC(=O)O | 1 | 5 | x | x | x | -17 | x | -16
O=C(O)c1ccc(Cl)nc1 | 0 | 1 | -6 | i | -5 | x | -12 | -11

(next part)
SMILES | MT1-MMP act inh | MT1-MMP act inh RFP | PABP polyA inh | Rce1 inh | HIV Env fusion | Yeast UUG start | eIF4H FP inh | CSC inhib | others
CN(C)c1ccc(/C=C/C=C2/C(=O)NC(=O)N(c3ccccc3)C2=O)cc1 | 8 | 42 | -23 | i | -210 | x | -25 | x
Cn1cc(C(=O)OCC(=O)NC2CCCCC2)c2ccccc21 | 3 | 4 | x | x | x | -19 | x | -16
CC(NCc1ccc(Cl)cc1)C(O)c1ccccc1 (stereo not given) | 8 | 2 | 8 | i | x | 3 | -1 | -8
CCCC(C)n1[nH]c(=O)c2c1NC(=O)CSC2c1ccc(OC)cc1 (stereo not given) | 3 | 1 | 4 | i | x | -23 | 0 | -3
COC(=O)c1ccc(-n2c(C)nc3ccccc3c2=O)cc1 | 4 | 3 | -11 | i | x | -2 | 8 | -16
Cc1cccc(-n2c(O)c(C=NC34CN5CN(CN(C5)C3)C4)c(=O)[nH]c2=O)c1 | 1 | 4 | 4 | i | -13 | -9 | -2 | -13
Cc1ccc(N(C)C(=O)Oc2ccc(C(=O)c3ccc(Cl)cc3)cc2)cc1 | -1 | -5 | 8 | i | x | -16 | -7 | 21
O=C1NC(=O)C2(Cc3ccccc3N3CCCC32)C(=O)N1c1cccc(Cl)c1 (stereo not given) | -7 | 0 | 7 | i | -22 | -13 | 15 | 0
CCOC(=O)[C@]12Cc3cc4c(cc3[C@H]1N(Cc1ccccc1)C(=O)c1ccccc12)OCO4 | -11 | -6 | x | x | 11 | -12 | x | x
Clc1ccc(C2N3CCCN23)c(Cl)c1 (stereo not given) | 8 | 2 | -1 | i | x | -13 | -7 | -8
O=C1c2cccc(N3CCNCC3)c2C2CCCCN12 (stereo not given) | -5 | 3 | x | x | 11 | 2 | x | x
O=C(c1cccc2ccccc12)C1CCCN(C2CCC2)C1 (stereo not given) | -6 | 1 | -8 | i | 3 | x | -4 | -8
Cc1ccccc1-n1c(-c2ccc([N+](=O)[O-])cc2)nc2ccccc2c1=O | -2 | -4 | 8 | i | 8 | x | -6 | -15
CN1C(=O)C(Cc2cccs2)C(=O)N(C)C1=O | 14 | 4 | 11 | i | x | 8 | 1 | 6
COc1cc(/C=N/NP(=S)(c2ccccc2)c2ccccc2)ccc1O | 0 | 3 | 10 | i | x | 90 | -9 | 20
O=C(Nc1ccccc1F)OC1CN2CCC1CC2 (stereo not given) | 1 | 3 | 2 | i | -1 | 165* | -11 | -16
C[C@@H]1O[C@@H](O[C@H]2C[C@@H](O)[C@]3(CO)[C@H]4[C@H](O)C[C@]5(C)[C@@H](C6COC(=O)C6)CC[C@]5(O)[C@@H]4CC[C@]3(O)C2)[C@H](O)[C@H](O)[C@H]1O (stereo not given in full) | -33 | -27 | 10 | i | -157 | 3 | 0 | 82*
CCc1cc2c(s1)N(CC(=O)OC)C(=O)CN=C2c1ccccc1OC | 2 | 5 | 7 | i | 1 | x | 6 | 3
COC(=O)c1ccc(COc2cc(C)cc3oc(=O)c4c(c23)CCCC4)o1 | 5 | -4 | -3 | i | x | -13 | 5 | -9
CN(C)C(CNC(=O)Cc1ccc(Br)cc1)c1ccccc1 (stereo not given) | 0 | -1 | 6 | i | 3 | -20 | -4 | 5
CN1C(=O)/C(=C\N2CCc3ccccc32)C(=O)NC1=S | 6 | 11 | 7 | i | -21 | x | 39 | -14
O=C1CC(c2ccccc2)CC(O)=C1C=NCCN1CCN(C(=O)Cc2ccccc2)CC1 (stereo not given) | 4 | 4 | 12 | i | -68 | x | 0 | -11
CC1CCC(NC(=O)CNC(=S)N2CC3CC(C2)c2cccc(=O)n2C3)CC1 (stereo not given) | -2 | 3 | x | i | 0 | -13 | x | -2
CC1CCCCC1NC(=O)CNC(=S)N1CC2CC(C1)c1cccc(=O)n1C2 (stereo not given) | -1 | 4 | x | i | 5 | -14 | x | -8
CC1CCCN(c2ccc(C(=O)N3CCC4(CC3)OCCO4)cc2[N+](=O)[O-])C1 (stereo not given) | -9 | -5 | 4 | i | -4 | -12 | 0 | 116*
O=c1cccc2n1CC1CC2CN(c2ncnc3c2cnn3-c2ccc(Cl)cc2)C1 (stereo not given) | 5 | -1 | -7 | i | x | -1 | -5 | -1
Clc1cccc(C2NCc3ccccc3-n3cccc32)c1 (stereo not given) | 3 | 2 | 4 | i | 11 | -15 | -9 | 17
CN1CC2([N+](=O)[O-])CC=C(Cl)C([N+](=O)[O-])(C1)C2 (stereo not given) | 2 | 6 | 3 | i | 5 | -18 | -5 | -5
Cc1cccc(C(O)(C(=O)NNC(=O)CN2CCN(C)CC2)c2cccc(C)c2)c1 | 3 | 2 | 7 | i | 5 | -5 | -4 | -1
CN1CCN(c2cccc3c2C(=O)c2ccccc2C3=O)CC1 | -12 | -9 | 9 | i | -27 | 4 | u | x
O=C1NCN(c2ccccc2)C12CCN(C(c1cccc3ccccc13)c1nnnn1-c1ccc3c(c1)OCCO3)CC2 (stereo not given) | 5 | -3 | x | x | -31 | -18 | x | x
COC(=O)C1=COC(C)C2CN3CCC4(C(=O)Nc5ccccc54)C3CC12 (stereo not given) | 7 | -1 | -1 | i | x | -19 | -10 | -5
O=C(c1cc(=O)[nH]c2ccc(Br)cc12)N1CCC2(CC1)OCCO2 | 4 | 5 | 6 | i | x | 6 | 0 | -8
CC(C)Oc1ccc(Cc2c(O)[nH]c(=O)[nH]c2=O)cc1 | x | x | 6 | i | x | x | 13 | x
Cc1c(NC(NC(=O)CF)C(Cl)(Cl)Cl)c(=O)n(-c2ccccc2)n1C (stereo not given) | 7 | 8 | -11 | i | -18 | -12 | -7 | -14
COc1ccc(C(=O)CC(c2ccc(OC)c(OC)c2)c2c(O)c3ccccc3oc2=O)cc1OC (stereo not given) | -3 | 0 | x | x | -2 | -25 | x | x
CC(=O)Nc1ccccc1C(=O)C(=O)Nc1cccc(C(=O)N2CCC3(CC2)OCCO3)c1 | 3 | 0 | 5 | i | 2 | x | 7 | 0
O=C1NC(=O)N(c2ccc(F)cc2)C(=O)/C1=C/c1ccc2c(c1)CCCN2Cc1ccccc1 | 2 | 15 | -14 | i | -8 | x | u | x
COc1ccc(-n2c(-c3ccco3)nc3ccccc3c2=O)cc1 | -1 | -3 | -8 | i | 10 | x | 7 | 4
